H5N1 antiviral: antiviral screen in MDCK cells, H5N1 avian flu | cytopathic effect, luminescence, 72 h; stronger effect = higher value; no value below 0 was filed and about half of the inactive calls have no number; reference of the scale not given here | inhibition, % at 50 µM | actives 0.07% (n = 96,000) | AID 740; in the data active = inhibition above about 25%
The depositor's hits bear a star; i = inactive. This is a subset, so the mix of outcomes need not match the whole.

SMILES	H5N1 antiviral
Nc1ccc(-n2nncc2-c2ccc(Cl)cc2)cc1	i
COc1ccc(S(=O)(=O)N2CCC(C(=O)Nc3c(F)cccc3F)CC2)cc1	0.7
COc1ccccc1C(=O)N(Cc1ccco1)C1CCS(=O)(=O)C1 (configuration not stated)	0.8
Cc1cccc(C(=O)N2CCN(C(=O)c3cccc(C)c3)C(C)C2)c1 (configuration not stated)	0.2
Cc1cc(=O)[nH]c(SCc2cc(=O)n3nc(C)sc3n2)n1	0.7
Cc1nc(-c2ccccc2)sc1C(=O)/C=C/c1ccccc1	i
CCC(C(=O)Nc1nccs1)c1ccccc1 (configuration not stated)	0.3
COc1ccccc1N1C(N)=NC(N)=NC1(C)C	0.2
CN(C)c1ccnc(Oc2ccc(Cl)cc2)c1C#N	i
COc1ccccc1N1CCN(C(=O)COc2ccc(C)cc2Br)CC1	0.3
Cc1cc(C)cc(Oc2ccccc2/C=N\O)c1	0.5
Cn1nnnc1SCc1nc2ccccc2[nH]1	0.3
COC(=O)c1ccc(-c2ccco2)n1Cc1nc(-c2ccc(OC)c(OC)c2)oc1C	i
Cc1cc(NC(=O)NC(=O)c2ccc(F)cc2F)n[nH]1	0.1
CCN(CC)c1ccc(-c2nnc(SCC(=O)Nc3ccccc3C#N)n2-c2ccccc2)cc1	0.8
Cc1ccc(C)c2c1cc(C)c1nnc(SCc3ccccn3)n12	2.1
CC(Cc1cccs1)NC(=O)Nc1ccc(Cl)c(Cl)c1 (configuration not stated)	0.4
Cc1ccc(S(=O)(=O)Nc2cc(NC(=O)CN3CCOCC3)ccc2Cl)cc1	i
C=CCN1C(=O)C2(c3ccccc31)C1CCCC=C1C(C#N)=C(N)C2(C#N)C#N (configuration not stated)	i
O=C(CSc1nc(-c2ccccc2)cs1)NCc1ccco1	1.1
CCn1c(C)nc2cc(C(=O)OCCC(F)(F)F)ccc21	2.3
Cc1ccc(NC(=O)CSc2nc3ccccc3c(=O)n2CCCC(=O)N2CCCC2)cc1	i
O=C(CCn1cnc2ccccc2c1=O)Nc1ccc2c(c1)OCCO2	i
Cc1cc(C)c(C#N)c(N2CCN(CCOc3ccc(Cl)cc3)CC2)n1	i
OCCNc1nc(-c2ccccc2)c2ccccc2n1	1.0
COc1ccccc1NC(=O)N1CCc2[nH]c3ccc(F)cc3c2C1	i
COc1ccc(-c2nc(-c3ccccc3)c(-c3cc([N+](=O)[O-])ccc3C)[nH]2)cc1OC	1.1
COCCCNc1nc2c(c(=O)[nH]c(=O)n2C)n1CC(O)COc1cccc(C)c1 (configuration not stated)	0.3
COc1ccc(C2C(C#N)=C3NC(=O)c4c(sc5c4CCCCC5)N3C3=C2C(=O)CC(C)(C)C3)cc1 (configuration not stated)	12
COc1ccc(-c2cn3nc4c(nc3n2)CCCC4)cc1	i
CCOC(=O)c1ccc(NC(=O)c2cnccn2)cc1	0.6
COc1ccc(Oc2ccccc2C=O)cc1	i
N/C(=N/OCC(=O)Nc1cccc2ccccc12)c1nonc1N	i
Nc1nc(CSc2nnnn2-c2ccccc2)nc(N2CCCc3ccccc32)n1	4.0
COc1ccc(Cl)cc1NC(=O)c1cccnc1	i
Cc1cccc(-n2c(C)nc3c(cnn3-c3ccc(F)cc3)c2=O)c1	3.8
CCS(=O)(=O)Nc1ccc(C(=O)CC2(O)C(=O)Nc3ccccc32)cc1 (configuration not stated)	0.1
Cc1nc(C)c(C(=O)N/N=C/c2c[nH]c3ccccc23)s1	5.1
Nc1c(-c2cccs2)cnn1-c1nc(-c2ccc(F)cc2)cs1	i
O=C(Nc1cc(Cl)c(O)c(Cl)c1)C1CCCO1 (configuration not stated)	i
Cc1nnc2sc(-c3csc4c3CCCC4)nn12	1.5
COc1cc2[nH]c(=O)n(CCCCCC(=O)NCCCN3CCOCC3)c(=O)c2cc1OC	i
COc1ccc(CCNC(=O)C2CCN(C(=O)N(C)C)CC2)cc1OC	i
COc1ccccc1-c1nnc(SCc2nc3ccccc3[nH]2)n1C	1.6
Cc1cccc2cc(/C=C3\N=C(c4ccccc4)OC3=O)c(N3CCOCC3)nc12	0.7
O=C(O)c1cc2sccc2s1	0.3
Cc1cc(C)c(NC(=O)C(C)(C)C)c(Cl)c1	0.6
O=C1CSC(=Nc2ccccc2Cl)N1	i
Cc1cc(C)c(C2C(C#N)=C(N)Oc3n[nH]c(C)c32)cc1CN1CCOCC1 (configuration not stated)	i
Cn1c2ccccc2c2cc(C(=O)OCC(=O)N3CC(=O)Nc4ccccc43)sc21	0.1

(list continues)
SMILES	H5N1 antiviral
CCN(CC)S(=O)(=O)c1cc([N+](=O)[O-])ccc1NNC(=O)Nc1ccccc1OC	0.6
COc1ccc(N(CC(=O)Nc2ccc3c(c2)OCCO3)S(=O)(=O)c2cccnc2)cc1	6.8
O=C(Nc1ccc2oc(-c3ccccc3F)nc2c1)c1ncn[nH]1	1.5
COc1ccc(-n2c(C)nnc2SCC(=O)N2C(C)CCCC2C)cc1 (configuration not stated)	3.8
O=C(CCC1CCCC1)c1c(O)c2ccccc2oc1=O	i
CCCC(=O)Nc1ccccc1NC(C)=O	1.0
COc1ccc(NC(=O)CSc2nnc(-c3cccs3)n2Cc2ccco2)cc1OC	i
COCCCNC(=O)/C=C/c1cccc(Cl)c1	0.8
Cc1sc(NC(=O)c2cc3ccccc3oc2=O)c(C(=O)OC(C)C)c1-c1ccccc1	i
Cc1[nH]c(-c2ccco2)nc1C(=O)O	i
NCCCC(=O)N1c2ccccc2Sc2ccccc21	i
COc1ccccc1NC(=O)c1ccccc1-c1nc(-c2ccccc2OC)no1	i
COc1ccc(N2CCN(C(=O)CSc3nnnn3-c3ccc4c(c3)OCCO4)CC2)cc1	0.5
CCc1ccc(-c2cc(C(F)(F)F)n3nc(C(=O)Nc4cnn(Cc5ccc(C)cc5)c4)cc3n2)s1	i
COc1nccc(Nc2ccccc2)c1C#N	i
CCOC(=O)N1CCN(C(=O)CCn2nc(-c3ccc(Cl)cc3)ccc2=O)CC1	1.8
O=C(NCc1cccs1)c1ccccc1	0.2
COc1ccc(S(=O)(=O)Cc2ccc(C(=O)N3CCN(c4cc(Cl)ccc4C)CC3)o2)cc1	0.2
O=C(NCc1ccccc1)c1ccc2c(c1)C(=O)N(CC1CCCO1)C2=O (configuration not stated)	i
c1ccc(CN2CCN(C3=Nc4cccc5cccc3c45)CC2)cc1	0.6
COc1ccc(NC(=O)NC(C)(C(F)(F)F)C(F)(F)F)cc1	i
CCN(CC)CCCNC(=O)c1ccc(Cl)c(S(=O)(=O)Nc2ccccc2OC)c1	i
CCCCn1c2nc3ccccc3nc2c2c(=O)n(CCC(C)C)cnc21	0.9
CCOc1ccc(-n2cc(C(=O)N3CCC(C)CC3)c3cc(OC)c(OC)cc3c2=O)cc1	1.7
O=C1N[C@@H](Cc2ccccc2)C(=O)N1CCN1CCOCC1	1.1
CC1(C)CC2CC(C)(CN2CC(=O)C(C#N)c2ccccc2)C1 (configuration not stated)	i
Nc1nnc(CC2=CCCCC2)s1	0.2
Cc1cc(C)n(-c2nc3c(c(=O)[nH]c(=O)n3C)n2CC(C)C)n1	1.7
CCCC1=C(C(=O)OCC)C(c2cc(Cl)cc(OC)c2OCC(=O)OCC)NC(=O)N1 (configuration not stated)	i
Cc1ccccc1/C=c1\s/c(=C\C(=O)C(C)(C)C)[nH]c1=O	i
Cc1ccc(Nc2nc(N)nc(CN3CCCCCC3)n2)c(C)c1	1.0
COc1ccc(Nc2cc(=O)oc3ccccc23)cc1	i
CCOC(=O)c1ccc(-n2c(N)c(C(=O)NCc3ccco3)sc2=S)cc1	0.8
O=c1/c(=C\c2ccc(O)cc2)sc2n1C(c1ccccc1)C(c1ccccc1)=NN=2 (configuration not stated)	3.8
O=C(NC1CCCC1)c1sc(=S)n2c1[nH]c(=O)c1ccccc12	0.5
CCOC(=O)c1cnc2c(C(=O)OC)cccc2c1NCc1ccco1	2.3
C=CCNc1sc(C(=O)C2CC2)c(N)c1C#N	i
CC1(C)CC(=O)c2cc(OCC(=O)NCCCN3CCN(c4ccc(F)cc4)CC3)ccc2O1	0.3
CCn1ncc(C(=O)Nc2cc(C)on2)c1C	i
O=C(Nc1ccccc1)N1CCN(c2ccccn2)CC1	i
C=C(C)COc1ccc(-c2nc(N)ncc2-c2ccc(OC)cc2)c(O)c1	1.4
CN(c1ccc(C(=O)Nc2ccccc2Sc2ccccc2)cc1)S(C)(=O)=O	2.0
CCc1cc2c(N3CCN(c4nnc(CC)s4)CC3)ncnc2s1	i
N#C/C(C(=O)c1ccccc1)=C1/SC=C(N)N1c1ccccc1	i
CCOc1ncccc1C(=O)OCC(=O)N1CC(=O)Nc2ccccc21	1.0
CC1(C)CC(=O)C(C=N)=C(O)C1	i
COc1ccc(C(=O)/C=C(\C)Nc2ccc(NC(C)=O)cc2)cc1	0.6
CCC(Sc1nc(-c2ccccc2)cc(=O)[nH]1)C(=O)O (configuration not stated)	0.1
CCCc1[nH]c(=O)c(C#N)c2c1CCCC2	0.0
Cn1c(SCc2ccccc2Cl)nc(C(F)(F)F)cc1=O	1.3

The list continues:
SMILES	H5N1 antiviral
COc1ccc2c3c(c(=O)oc2c1OCC(=O)C(C)(C)C)CCCC3	0.6
Cc1cccc2c1CC(C)(C)N=C2C1=C(O)CC(C)(C)CC1=O	i
O=C1c2ccccc2C(=O)N1c1n[nH]c(CCc2ccccc2)n1	1.3
Cc1ccc(CCNC(=O)C2CCCN(S(=O)(=O)c3cnc[nH]3)C2)cc1 (configuration not stated)	i
Cn1c(SCc2ccc3c(c2)OCO3)nnc1-c1ccccc1	i
Cn1c(Cn2nnc(-c3ccccc3)n2)nnc1SCc1ccccc1Cl	i
CC1(C)C=C(c2ccc(O)cc2)CC(C)(C)N1	0.1
CP(C)(=O)CCC(=O)O	0.6
Cc1csc(NC(=O)CSc2nnc(-c3ccncc3)o2)n1	5.8
CCC(C)C12CN3CCN(CC(C)(C3)C1=O)C2 (configuration not stated)	i
O=C(O)c1cccc(N2C(=O)C3CC=C(Cl)CC3C2=O)c1 (configuration not stated)	2.0
O=C1CCCc2nc(N3CCN(Cc4ccccc4)CC3)ncc21	2.5
C(=N/n1c2ccccc2c2ccccc21)/c1ccco1	i
Cn1nc(C(F)(F)F)c(/C=N/OC(=O)c2ccccc2)c1SCc1ccc(Cl)cc1	1.4
c1ccc(N2CCN(c3nnnn3-c3ccccc3)CC2)cc1	2.5
COc1ccc(-n2nnc3c(=O)n(CC(=O)N4CCC(C)CC4)cnc32)cc1	i
Cc1csc(SCC(=O)Nc2ccccn2)n1	0.2
Cc1ccccc1C(=O)O/N=C/c1c(N2CCOCC2)n(C)c2ccccc12	7.2
Cc1ccccc1C(=O)N1CCN(c2ncnc3c2cnn3-c2ccccc2)CC1	2.1
Cc1ccc(-n2c(O)c(C=NCCN3CCOCC3)c(=O)[nH]c2=O)cc1	i
O=C(CCn1c(=O)sc2ccccc21)Nc1nccs1	i
COCCn1nnnc1C(CC(C)C)N1CCN(C(=O)c2ccco2)CC1 (configuration not stated)	1.2
O=C(CSc1nc(-c2ccccc2)c(-c2ccccc2)o1)Nc1nnc(-c2ccccc2)s1	i
O=C(Nc1ccc(N2CCN(C(=O)c3ccco3)CC2)cc1)c1ccc(F)cc1	i
FC(F)(F)c1cc(-c2ccccc2)nc(N2CCCCCC2)n1	1.1
COc1cccc(CN2CCCCC2c2cccnc2)c1 (configuration not stated)	0.9
O=c1[nH][nH]c(C(F)(F)F)c1C=NCc1cccc(Cl)c1	i
CCCN(CCC)S(=O)(=O)c1ccc(NS(=O)(=O)c2ccc(F)cc2)cc1	0.8
CC(=O)c1cccc(Nc2nc(-c3cccc([N+](=O)[O-])c3)cs2)c1	i
CC(C)(C)c1nc(NCC2CCCO2)c2nnn(Cc3ccccc3)c2n1 (configuration not stated)	0.6
O=C(C1=C(O)C(=O)N(CCN2CCOCC2)C1c1ccccn1)c1cccs1 (configuration not stated)	1.3
COC(=O)c1c(NC(=O)c2cccs2)sc2c1CCCC2	i
O=C(C1CCN(S(=O)(=O)c2cccs2)CC1)N1CCN(c2ccccc2)CC1	0.5
CCOC(=O)C(C)Sc1ncc(OC)c(Sc2ccc(Cl)cc2)n1 (configuration not stated)	1.4
COc1ccccc1NC=C1C(=O)OC(C)(C)OC1=O	i
C/C(=N\NC(=O)c1cccc(C)c1)c1ccc(N2CCOCC2)cc1	0.7
COc1ccc(C(=O)N2CCCC(c3nc(-c4cccs4)no3)C2)cc1 (configuration not stated)	1.3
CN(C)CCN=Cc1c(O)n(CCC2=CCCCC2)c(=O)[nH]c1=O	0.3
Cc1ccc(N2CC(C(=O)Nc3ccncc3)CC2=O)cc1 (configuration not stated)	0.1
Cc1ccc(-c2nn(C)c(=O)c3ccccc23)cc1CNS(C)(=O)=O	0.7
Cc1ccccc1P(=O)(CO)c1ccccc1C	0.4
CC(C)Oc1ccc(C(=O)CCN2CCCCC2)cc1	1.1

From PubChem
